# HTT prom inh = inhibits huntingtin promoter activity. HEK293 HTT promoter firefly luciferase reporter (activity 0% = vehicle and -100% = no light), 24 h. Potency, µM (series often up to 57.5 µM), for inactives: at the highest dose activity change, negative = inhibition, most hits filed as inhibitors. hit rate 0.93% among 48,000. AID 1508623; active means well fitted inhibition curve with a large enough effect; inconclusive means small, poorly fitted or top-dose-only effect; inactive means no such curve, though single readings can be large or run the other way; further: nearly all actives have a fitted effect of over 50% in size
#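 Quantitative HTS used concentration series of up to 57.5 uM final on HEK293 luciferase reporter cells, 24 h at 37 degrees C. Readout was Dual-Glo firefly luminescence.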
# PMP22 txn = modulates PMP22 transcription in S16 Schwann cells; S16 Pmp22-F2sN Schwann cells (luciferase reporters placed in the Pmp22 gene), FLuc/NLuc coincidence luminescence, 24 h; hit rate 2% among 43,000; AID 1508649; Potency, µM (series often up to 57.5 µM), without a hit: at the highest dose activity change, negative = inhibition, usual class: inhibitors; active = clear falling dose curves in both reporters; inconclusive = both reporters move, but less clearly or upward; inactive = either reporter flat; the % is the NLuc reporter signal; further: on the % scale 0 is the no-effect control and ±100 the full control effect; some results filed as inactive show a strong effect at the top dose
#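 qHTS, 1536-well. Cells seeded, compounds added by pin tool, 24 h 37C. Nano-Glo reagent 1 (lysis/FLuc), 10 min RT, read; Stop&Glo, 10 min RT, read NLuc.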
# The depositor's hits bear a star; ? = inconclusive; . = no result given; [ ] = remark or other dose. Potency means the concentration at half of the fitted maximal effect.
SMILES,HTT prom inh,PMP22 txn
COc1ccc(Cn2c(=O)c3oc4ccccc4c3n(Cc3cccc(C(F)(F)F)c3)c2=O)cc1,-19%,15%
Cc1nn(C(=O)COc2ccccc2)c(C)c1Sc1ccccc1,-12%,-15%
Cc1nc2nc(SCc3c(F)cccc3Cl)nn2c(C)c1Cc1ccccc1,26%,?
COc1cc(CN(C(=O)c2ccccc2[N+](=O)[O-])c2ccccn2)cc(OC)c1OC,-14%,-37%
Cc1cccc(N(CC(O)Cn2c3ccccc3c3ccccc32)S(=O)(=O)c2ccc(F)cc2)c1 (stereo not drawn),?,?
O=C(CCc1nc(-c2cccs2)no1)Nc1cccc([N+](=O)[O-])c1,-5%,8%
Cc1ccc2nc(N3CCN(C(=O)C4CC4)CC3)sc2c1,44%[activator],?
CCc1ccc(NC(=O)CSc2nc(-c3ccccc3Cl)nc3c2Cc2c(CO)cnc(C)c2O3)cc1,1%,?
CCOc1ccccc1NC(=O)c1ccc(F)c(S(=O)(=O)NCc2ccc3c(c2)OCO3)c1,-30%,?
Cc1ccc(C(c2sc3nc(-c4ccco4)nn3c2O)N2CCCCC2)cc1 (stereo not drawn),-18%,-7%
CC[N+](CC)(CC)CCOC(=O)C(C1CCCC1)C1CCCC1,-4%,.
CCOc1ccc(S(=O)(=O)Nc2cccc(-c3ccc(OCC)nn3)c2)cc1,?,?
O=S(=O)(c1cccc(Cl)c1)c1nnn2c1nc(NCc1ccc3c(c1)OCO3)c1sccc12,?,3%
CCn1c(=O)c2sccc2n2c(CCC(=O)Nc3ccc(F)cc3)nnc12,-8%,1%
Cc1ccccc1C(=O)Nc1cccc(OCc2cc(=O)n3c4c(sc3n2)CCCC4)c1,-18%,-27%
Cc1ccccc1NC(=O)Cn1c(=O)n(Cc2ccccc2)c(=O)c2c(C)c(C)sc21,-2%,-13%
COc1ccccc1NC(=O)c1c(NC(=O)COc2ccccc2)sc2c1CCCCC2,-9%,29%
COc1ccc2oc(=O)c(C(=O)N3CCN(c4ccc(C)cc4)CC3)cc2c1,10%,-11%
Cc1ccc(-c2noc(-c3nnn(CC(=O)Nc4ccc(C)c(Cl)c4)c3N)n2)cc1,3%,-16%
Nc1cccc2c(N)cccc12,13%[116 µM],.

# 5 records picked at random from those above:
SMILES,HTT prom inh,PMP22 txn
Nc1cccc2c(N)cccc12,13%[116 µM],.
O=S(=O)(c1cccc(Cl)c1)c1nnn2c1nc(NCc1ccc3c(c1)OCO3)c1sccc12,?,3%
CC[N+](CC)(CC)CCOC(=O)C(C1CCCC1)C1CCCC1,-4%,.
COc1ccc2oc(=O)c(C(=O)N3CCN(c4ccc(C)cc4)CC3)cc2c1,10%,-11%
Cc1ccccc1NC(=O)Cn1c(=O)n(Cc2ccccc2)c(=O)c2c(C)c(C)sc21,-2%,-13%

# Following part:
SMILES,HTT prom inh,PMP22 txn
COc1ccc(CCNC(=O)Cn2cc(S(=O)(=O)Cc3ccc(F)cc3)c3ccccc32)cc1OC,-24%,?
O=C(Nc1cccc(C(F)(F)F)c1)N1CC2CCCN2c2ccccc21 (stereo not drawn),-28%,?
COc1ccc(CCNC(=O)C2(c3cccs3)CCOCC2)cc1OC,0%,-29%
Cc1nn(C)cc1CN(C)C(=O)c1cc(-c2ccccc2)nc2ccc(Br)cc12,-9%,?
Cc1cccc(OCCSc2nc3ccccc3n2CC(=O)N2CCOCC2)c1C,-31%,4%
C=CCc1ccccc1OCC(O)CNC(C)C (stereo not drawn),1%,.
CCOC(=O)c1c(NC(=O)C(C)Sc2cn(CCNC(=O)c3ccc(OC)cc3)c3ccccc23)sc2c1CCC2 (stereo not drawn),?,-30%
CCOC(=O)c1ccc(N2C(=O)c3[nH]nc(-c4ccc(OC)cc4)c3C2c2ccccc2Cl)cc1 (stereo not drawn),-2%,4%
CCOCCc1nnc(NC(=O)C(=O)c2cc(C)n(-c3cccc(C)c3)c2C)s1,-27%,-7%
CC1=C(C(=O)Nc2ccc(C)cc2C)C(c2sccc2C)n2ncnc2N1 (stereo not drawn),-10%,16%
COc1ccc(NC(=O)CCNS(=O)(=O)c2cccc3nsnc23)cc1OC,-10%,-14%
COc1cccc(NC(=O)Cn2c(=O)n(-c3ccc(CC(=O)NCC4CCCO4)cc3)c(=O)c3ccccc32)c1 (stereo not drawn),1%,-20%
CC1CCN(C(=O)c2cc(-c3ccc(Cl)cc3)on2)CC1,74%[activator],-1%
COCCNC(=O)C1CCN(c2nc3ccccc3nc2C(F)(F)F)CC1,-2%,46%
Cc1ccc(-n2nc3c(=O)n(CCCC(=O)NCc4ccccc4C)nc(C)c3c2C)cc1,?,?
Clc1cccc(CSc2nc(NCCc3ccccc3)c3ccccc3n2)c1,-2%,-42%
N#CCC(=O)NN,-1%,.
O=S(=O)(NCC(c1ccco1)N1CCOCC1)c1ccc(Cl)cc1 (stereo not drawn),-8%,-20%
O=C1c2oc3ccccc3c(=O)c2C(c2cccc(Cl)c2)N1c1ccccn1 (stereo not drawn),-8%,-2%
CCOC(=O)c1[nH]c(C)c(C(=O)NCc2cccc(OC)c2)c1C,-24%,-3%

# Brought forward from above: two entries; new compounds follow.
SMILES,HTT prom inh,PMP22 txn
O=C1c2oc3ccccc3c(=O)c2C(c2cccc(Cl)c2)N1c1ccccn1 (stereo not drawn),-8%,-2%
CCOC(=O)c1[nH]c(C)c(C(=O)NCc2cccc(OC)c2)c1C,-24%,-3%
CCOc1ccc(CCNc2ncnc3onc(C)c23)cc1OCC,?,4.7µM*
COc1cc(Cl)c(NC(=O)CCc2nc3cccnc3n2-c2ccccc2)c(OC)c1,-28%,-6%
Cc1ccc(NC(=O)Cn2ncc3c4ccccc4n(Cc4ccccc4)c3c2=O)cc1Cl,4%,3%
Cc1ccc(NC(=O)Cn2c(=O)n(Cc3ccc4c(c3)OCO4)c(=O)c3ccccc32)c(C)c1,-5%,?
Cc1ccc(N2CCN(c3nc4c(S(=O)(=O)c5ccc(C)c(C)c5)nnn4c4ccccc34)CC2)c(C)c1,5%,5%
Cc1ccccc1OCC(=O)Nc1ccc(-c2nc3ncccc3o2)cc1,63%[activator],-11%
CCc1ccc(CNC(=O)c2ccc3nc(SCc4ccc(F)cc4)n(C)c3c2)cc1,?,-19%
Cc1ccc(C)c(NC(=O)c2nnn(CC(=O)Nc3cccc(C)c3C)c2N)c1,-11%,-6%
Cc1c(CC(=O)NCc2ccc(F)cc2)c(=O)oc2cc(O)c(Cl)cc12,-9%,7%
Clc1cccc(-c2nnnn2Cc2cccnc2)c1Cl,-6%,.
COc1ccc(NC(=O)Cn2c(=O)n(Cc3ccco3)c(=O)c3sc4ccccc4c32)cc1OC,-14%,-33%
O=C(NCc1ccc(Cl)cc1)c1cc2ccccc2o1,-8%,-7%
COc1ccc(NC(=O)C2CCCN(S(=O)(=O)c3c(C)[nH]c(=O)[nH]c3=O)C2)cc1Cl (stereo not drawn),1%,20%
Cc1c(Cl)cccc1NC(=O)CSc1nc(=O)n(Cc2ccco2)c2c1CCC2,-38%,?
COc1ccc(-n2c(=O)c3ccc(C(=O)NCc4ccc(C)cc4)cc3n(Cc3ccc(Cl)cc3)c2=O)cc1,-8%,-5%
COc1ccc(NC(=O)c2sc3nc4c(cc3c2N)CN(Cc2ccccc2)CC4)cc1,0%,12%
O=C(Nc1ccc(F)cc1F)c1ccc(CN2CC(=O)N3CCCCC3C2=O)cc1 (stereo not drawn),-18%,-4%
COc1cccc(C(=O)Nc2ccc(-c3cc(C(F)(F)F)nn3-c3ccccc3)cc2)c1,?,?
CCOC(=O)c1ccccc1NC(=O)CN1CCCN(Cc2cc(C)ccc2C)S1(=O)=O,?,?
COc1cccc(CNC(=O)C2CCCN(c3nnc(-n4c(C)ccc4C)s3)C2)c1 (stereo not drawn),-23%,?
C[C@H](N)[C@H](O)c1cccc(O)c1,9%,.
Cc1cccc(Cc2cnc(NC(=O)C3Cc4ccc(C)cc4C(=O)O3)s2)c1 (stereo not drawn),-5%,-4%
COc1cc2ccccc2cc1C(=O)Nc1cc(-c2nc3ccccc3o2)ccc1C,17%,-4%
CCCN(CCC)C(=O)Cn1c(=O)n(-c2cccc(C)c2)c(=O)c2c1c1cc(OC)ccc1n2C,-18%,?
CC(C)CCNC(=O)N1CCN(S(=O)(=O)c2ccc3c(ccn3C)c2)CC1,-32%,8%
CC(=O)c1cccc(NC(=O)C(Cc2ccccc2)NS(=O)(=O)c2ccc(Br)s2)c1 (stereo not drawn),-5%,-19%
CCN(CC)CCNC(=O)c1cn(CC)c2ccc(S(=O)(=O)N3CCc4ccccc4C3)cc2c1=O,-4%,-23%
Cc1ccc(CN(C(=O)COc2ccc(Cl)cc2Cl)C2CCS(=O)(=O)C2)o1 (stereo not drawn),-18%,?
N#Cc1c(NC(=O)CS(=O)(=O)c2ccc(Cl)cc2)sc2c1CCCCC2,?,-8%
O=[N+]([O-])c1ccc(/C=N\O)o1,0%,.
CC(C)c1ccccc1NC(=O)CN(c1ccccc1)S(=O)(=O)N(C)C,-14%,-1%
Cc1ccc(CNc2nc3ccccc3n3cnnc23)cc1,-4%,?
CCOc1ccc(CCNC(=O)c2ccc(-c3nc(COc4ccc(C)cc4)c(C)o3)cc2)cc1,-24%,3%
O=C(Nc1cccnc1Cl)c1cc(-c2ccc(Cl)cc2)on1,3%,-20%
O=S(=O)(c1ccccc1)n1nc(-c2ccc(Cl)cc2)nc1NCc1ccc(F)cc1,-34%,-21%
Cc1noc2ncnc(N3CCN(c4ccccc4F)CC3)c12,?,?
NS(=O)(=O)c1ccc(CCNC(=O)CCCCCn2c(=O)[nH]c3ccccc3c2=O)cc1,-13%,?
CCOC(=O)c1cc(S(=O)(=O)N2CCN(c3ccc(C(C)=O)cc3)CC2)[nH]n1,?,8%
CCCc1nn2c(=O)cc(COC(=O)c3cccc(NC(=O)c4cccs4)c3)nc2s1,-17%,2%
CCCN(C(=O)Cc1nc(-c2ccc(OC)cc2)no1)c1ccccc1C,-25%,-9%
CCCNC(=O)c1ccc2c(c1)N=C(CCC)c1ccccc1S2,?,11µM*
Cc1cn(C)c(CC(=O)Nc2cccc(Cl)c2C)c1C(=O)O,-6%,?
CCOC(=O)c1oc2c(c1C)-c1nn(Cc3c(F)cccc3Cl)cc1CC2,?,-41%
COc1cccc(-n2c(SCC(=O)N3CCCc4ccccc43)nc3c([nH]c4ccccc43)c2=O)c1,-22%,-24%
Cc1c(C(=O)OCc2ccccc2)[nH]c2c1C(=O)CC(c1ccc(N(C)C)cc1)C2 (stereo not drawn),-11%,-14%
Cc1cc(C)c2c(CC(=O)Nc3cc(C(F)(F)F)ccc3Cl)coc2c1,-19%,-24%
CN1CCN(c2ncnc3c2cnn3-c2cccc(Cl)c2)CC1,19%,?
Cc1ccccc1NC(=O)c1sc2nc3c(cc2c1N)CN(Cc1ccccc1)CC3,?,?
O=C(NCc1cccn1Cc1ccccc1)Nc1cccc(C(F)(F)F)c1,?,5%
Cc1ccc2c(c1)c(=O)c(S(=O)(=O)c1ccc(C)c(C)c1)cn2CC(=O)Nc1ccccc1,-22%,5%

# Given bar-delimited: entries from further up
SMILES | HTT prom inh | PMP22 txn
CCOc1ccc(CCNC(=O)c2ccc(-c3nc(COc4ccc(C)cc4)c(C)o3)cc2)cc1 | -24% | 3%
O=C(Nc1cccnc1Cl)c1cc(-c2ccc(Cl)cc2)on1 | 3% | -20%
O=S(=O)(c1ccccc1)n1nc(-c2ccc(Cl)cc2)nc1NCc1ccc(F)cc1 | -34% | -21%
Cc1noc2ncnc(N3CCN(c4ccccc4F)CC3)c12 | ? | ?

# (more compounds)
SMILES,HTT prom inh,PMP22 txn
O=C(NO)c1cnc(N2CCN(S(=O)(=O)c3ccc4ccccc4c3)CC2)nc1,112%[activator],.
CC(=O)NC(C)c1nc2ccccc2n1Cc1ccccc1Cl (stereo not drawn),7%,4%
CCc1ccc(NS(=O)(=O)c2ccc(NC(=O)N3CCCC3)cc2)cc1,-28%,1%
CCOc1ccc(C(=O)Oc2c(Sc3ccccc3)c(C)nn2C(C)(C)C)cc1OCC,?,?
O=C(Nc1ccc2oc(-c3ccc4ccccc4c3)nc2c1)c1cc(Cl)ccc1Cl,-19%,0%
Cn1nnnc1SCCNCc1ccc(OCc2ccccc2Cl)cc1,-5%,-46%
CC1CCN(S(=O)(=O)c2ccc3c(c2)N(CC(=O)NCCCN2CCCCC2)C(=O)CS3)CC1,-13%,-13%
O[C@@H]1CO[C@H]2[C@@H]1OC[C@@H]2O,5%,.
CCCCn1c(SCc2ccccc2C#N)nc2c(sc3ccccc32)c1=O,-19%,-11%
Cc1oc(-c2ccc(Cl)cc2)nc1Cn1c(=O)cc(C)c2c(C)nn(-c3cccc(F)c3)c21,-1%,-1%
CC(CNC(=O)CCc1cn(Cc2ccccc2Cl)c2ccccc12)c1ccccc1 (stereo not drawn),?,?
COC(=O)c1cc2sccc2n1CC(=O)Nc1cc(Cl)ccc1OC,28µM*,?
CCc1ccc(-n2nc(C)c3c(C)cc(=O)n(CC(=O)N(CC)Cc4ccccc4)c32)cc1,-3%,?
CCOc1cc(C2c3c(oc4ccccc4c3=O)C(=O)N2Cc2ccc3c(c2)OCO3)ccc1O (stereo not drawn),3%,-9%

# High-throughput results: PubChem, National Center for Advancing Translational Sciences (NCATS)
